Bioassay records (PubChem BioAssay)
GIV Gai3 FP: inhibitors of GIV GBA-motif binding to rat Galpha-i3; Galpha-i3/FITC-GIV peptide fluorescence polarization, 90 min; stronger effect = lower value; scaled: aluminum fluoride 0%, vehicle 100%; percent of control (FP), % (no concentration beside the values); hit rate 0.42% among 210,000;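 active = replicate mean at 85% of control or lower, very high polarization wells dropped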;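 note: wells of about 15 µL received 100 nL stock; the first replicate is given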
Target sequence (P08753 whole entry, looked up): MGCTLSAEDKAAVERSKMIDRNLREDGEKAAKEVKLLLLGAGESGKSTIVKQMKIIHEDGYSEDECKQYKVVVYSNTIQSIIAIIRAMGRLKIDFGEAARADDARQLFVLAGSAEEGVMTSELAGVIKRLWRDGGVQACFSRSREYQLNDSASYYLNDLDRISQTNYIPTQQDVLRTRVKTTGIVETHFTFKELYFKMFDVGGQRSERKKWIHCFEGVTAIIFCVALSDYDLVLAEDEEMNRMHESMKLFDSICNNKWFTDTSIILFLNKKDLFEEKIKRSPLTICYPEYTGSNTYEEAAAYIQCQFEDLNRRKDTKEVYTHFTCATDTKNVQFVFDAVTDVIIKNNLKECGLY
Sa growth inh: S. aureus growth inhibition; S. aureus RN4220 growth, OD600, 20 h, 42 °C; stronger effect = lower value; relative growth, % (test concentration not listed); hit rate 0.53% among 170,000;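 active = growth at 42 °C up to 50% and 20 or more points under that at 30 °C, or under 10% at both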;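 note: 300 nL library stock went into each well; scaled to the means of positive and negative controls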
HCMV UL50-53 inh: inhibitors of HCMV UL50-UL53 nuclear egress complex interaction; inhibition, % (test concentration not listed); hit rate 0.15% among 190,000; AID 1918969; HTRF UL50-UL53 interaction, normalized percent inhibition;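 active = both replicates at 50% or more, plus weaker picks with an unusually low signal ratio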;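 note: stock transfer was 100 nL into about 20 µL; 0% = negative control wells and 100% = wells with untagged competitor protein; inactives centre near -12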
Sa growth inh second temp: also measured in Sa growth inh; calls as there; relative growth, %; measured here: growth at 30 °C;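 optical density after 20 h as mean of two plates; 100% = untreated growth and lower means inhibition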
The depositor's hits bear a star; . = not tested or not shown. Hits appear at their usual frequency. About 0.83% of those tested had a hit in this group.

Short forms: A = GIV Gai3 FP; B = Sa growth inh; C = Sa growth inh second temp; D = HCMV UL50-53 inh
CCOC(=O)Nc1cccc(O)c1
  A: .	B: 64.7	C: 92.4	D: 1.6

Cc1ccc(CSc2oc(-c3cccs3)nc2S(=O)(=O)c2ccccc2)cc1
  A: 103.9	B: 102.6	C: 90.4	D: -12.1

CCOC(=O)C1CCCN(C2=NC(=O)/C(=C/c3ccc(OC)c(OC)c3)S2)C1 (stereo unspecified)
  A: 101.3	B: 90.8	C: 86.1	D: -44.8

CN(C(=O)c1ccc(COc2ccccc2Cl)o1)c1ccccc1
  A: .	B: 81.9	C: 69.8	D: -14.9

O=S(=O)(c1ccccc1)c1nc(-c2ccccc2)oc1NCCCn1ccnc1
  A: 105.7	B: .	C: .	D: 1.9

CC(C)CCNC(=O)C1CCCN(c2ccnc(-c3ccc(F)cc3)n2)C1 (stereo unspecified)
  A: 110.1	B: .	C: .	D: -26.2

O=C(NCC(c1cccnc1)N1CCN(c2ccccc2)CC1)c1ccccc1 (stereo unspecified)
  A: 103.5	B: 109.9	C: 87.8	D: -12.4

CCOC(=O)N1CCN(Cn2nnc3ccccc3c2=O)CC1
  A: .	B: 97.9	C: 97.9	D: -44.7

CCOc1ccccc1C(=O)Nc1nc2c(s1)CC(C)CC2 (stereo unspecified)
  A: 99.1	B: 99.4	C: 88.2	D: -13.0

CCOC(=O)Cn1cnc2sc(C)c(C)c2c1=O
  A: 103.4	B: 106.3	C: 82.9	D: -7.7

Cc1nc(NS(=O)(=O)c2ccccc2)sc1NC(=O)Nn1cnnc1
  A: 99.0	B: 86.0	C: 72.2	D: -3.6

Cc1cccc(C(=O)NC(=NCc2ccncc2)Nc2ccc3c(c2)OCO3)c1
  A: 98.0	B: .	C: .	D: -9.9

O=C(Nc1ccc(Cl)cc1)NC(Cc1ccccc1)C(=O)O (stereo unspecified)
  A: 102.4	B: 110.1	C: 97.3	D: -0.6

COC(=O)C1=C(NC(=O)c2cccc(Cl)c2)CCS1
  A: 107.6	B: 92.8	C: 95.7	D: .

CCOc1ccc(N(CC(=O)Nc2ccc(F)cc2F)S(=O)(=O)c2c(C)[nH]c(=O)[nH]c2=O)cc1
  A: 100.2	B: 99.2	C: 85.0	D: -18.5

Nc1nccc(-c2nn(-c3ccc(Cl)cc3)ccc2=O)n1
  A: 100.4	B: 107.7	C: 88.0	D: -64.6

CCOc1ccccc1NC(=O)Cn1ncc2c(=O)oc3ccc(C)cc3c21
  A: 106.3	B: 113.2	C: 90.7	D: -39.0

Cc1ccc(CN2COc3c(Cl)cc4c(C)c(C)c(=O)oc4c3C2)cc1
  A: 103.9	B: 89.8	C: 99.7	D: .

Cn1cnc(S(=O)(=O)NC2CCN(Cc3c(F)cccc3Cl)CC2)c1
  A: 103.3	B: 95.3	C: 87.9	D: -7.2

CCOc1ccc(-c2cc3c(=O)n(Cc4nc(-c5ccc(OC(C)C)cc5)oc4C)ccn3n2)cc1Cl
  A: 102.1	B: 92.1	C: 100.1	D: -7.5

Arranged by SMILES length (lowest first): 3 of the compounds above.
Short forms: A = GIV Gai3 FP; B = Sa growth inh; C = Sa growth inh second temp; D = HCMV UL50-53 inh
Nc1nccc(-c2nn(-c3ccc(Cl)cc3)ccc2=O)n1
  A: 100.4	B: 107.7	C: 88.0	D: -64.6

CCOc1ccccc1NC(=O)Cn1ncc2c(=O)oc3ccc(C)cc3c21
  A: 106.3	B: 113.2	C: 90.7	D: -39.0

CCOc1ccc(N(CC(=O)Nc2ccc(F)cc2F)S(=O)(=O)c2c(C)[nH]c(=O)[nH]c2=O)cc1
  A: 100.2	B: 99.2	C: 85.0	D: -18.5

Following part
Short forms: A = GIV Gai3 FP; B = Sa growth inh; C = Sa growth inh second temp; D = HCMV UL50-53 inh
O=C1COc2ccccc2N1C(=O)c1ccc(Cl)cc1
  A: 100.6	B: 113.6	C: 90.3	D: -6.4

CCn1c(=O)c(-c2noc(C(=O)N3CCCC3)n2)nn(-c2ccc(F)cc2)c1=O
  A: 98.1	B: .	C: .	D: -132.5

C/C(N)=C(/C#N)C(=O)CSc1nc2nc(C)cc(C)n2n1
  A: .	B: 103.5	C: 89.5	D: -10.7

O=C1c2[nH]nc(-c3ccccc3)c2C(c2ccccc2)N1c1cccc(C(F)(F)F)c1 (stereo unspecified)
  A: 107.6	B: 88.6	C: 85.0	D: -31.3

Cc1c(C#N)c(N)c(C(=O)c2ccccc2)n1-c1ccccc1
  A: 102.6	B: 112.0	C: 81.0	D: -35.0

COc1cccc(-c2cc(C(=O)Nc3c(C)nn(Cc4ccccc4Cl)c3C)no2)c1
  A: 103.3	B: 112.0	C: 86.3	D: 3.3

CCCN1c2ccccc2NC1NC(=O)CCN(c1ccc(OC)cc1)S(=O)(=O)c1ccc(C)cc1 (stereo unspecified)
  A: .	B: 91.4	C: 83.1	D: -33.6

CC1CN(c2oc(-c3ccccc3)nc2S(=O)(=O)c2ccccc2)CC(C)O1 (stereo unspecified)
  A: 102.1	B: .	C: .	D: -5.4

COc1cccc(-c2cc(C(=O)NC3CCCC3)no2)c1
  A: 102.8	B: 108.4	C: 83.0	D: .

CNC(=S)N/N=C/c1c(C(=O)OC)cnn1-c1ccc(F)cc1F
  A: 105.9	B: 100.6	C: 82.9	D: -49.2

Cc1nnc(SCc2cn3cc(Br)ccc3n2)n1C
  A: .	B: 103.8	C: 90.6	D: -16.6

CCc1ccc(-c2[nH]c3c(c2-c2c(-n4cccc4)n(C)c(=O)[nH]c2=O)c(=O)[nH]c(=O)n3C)cc1
  A: 105.6	B: 110.5	C: 83.5	D: -2.4

Cc1nc2nc(-c3ccc(C(C)(C)C)cc3)nn2c(C)c1CC(=O)N1CCCC1
  A: 108.4	B: .	C: .	D: 7.3

Cc1cc(Sc2ccccc2NC(=O)c2ccccc2)n2ncnc2n1
  A: 109.9	B: .	C: .	D: -1.5

Cc1ccc(C)c(NC(=O)C2CCN(c3ncnc4c3nc3n4CCCCC3)CC2)c1
  A: 112.1	B: 105.0	C: 99.2	D: .

Cc1nnc(SCC(=O)N2CCN(c3cccc(Cl)c3)CC2)n1C1CC1
  A: .	B: 100.8	C: 82.8	D: 4.2

Cc1cccc(NC(=O)CSc2nc3ccc(NC(=O)c4ccco4)cc3s2)c1
  A: 101.4	B: 101.5	C: 82.8	D: -24.4

COc1ccc(CNCC2(O)CCOC(C)(C)C2)cc1 (stereo unspecified)
  A: 95.5	B: 92.3	C: 80.4	D: -12.4

Cc1ccc(N2C(=O)CC2(C(=O)NC2CCCCC2)c2ccccc2F)cc1 (stereo unspecified)
  A: 96.7	B: 84.0	C: 88.6	D: .

Cc1cc(CNCC2CCCCC2)c(C)n1-c1nccs1
  A: .	B: 107.7	C: 87.5	D: -0.5

CCCC(=O)c1cc2cc(Cl)ccc2oc1=O
  A: 103.9	B: 87.2	C: 86.4	D: .

CCCc1nc2nc(C)c(NS(=O)(=O)c3ccc(Br)cc3)c(=O)n2[nH]1
  A: 97.2	B: .	C: .	D: -17.3

COc1ccc(S(=O)(=O)NCC2CCCO2)cc1C(=O)O (stereo unspecified)
  A: 103.2	B: 89.1	C: 83.5	D: -15.0

CN1CCC(NC(=O)c2cccs2)CC1
  A: 101.9	B: 109.5	C: 91.8	D: -7.4

C=CCn1nnnc1NCc1ccccc1
  A: 103.2	B: 94.3	C: 77.8	D: 2.1

COc1cccc(NS(=O)(=O)c2cc3c4c(c2)C(C)C(=O)N4CCC3)c1 (stereo unspecified)
  A: 94.8	B: 110.9	C: 86.0	D: .

ONC=Nc1nonc1-c1cccnc1
  A: 99.1	B: 101.4	C: 92.3	D: .

CNC(=O)COc1ccc(NC(=O)CCn2nc(-c3ccc(C)cc3)c3ccccc3c2=O)cc1
  A: 105.8	B: 128.3	C: 86.8	D: -38.0

CCC1CCCCN1C(=O)COC(=O)c1ccc(NC(C)=O)cc1 (stereo unspecified)
  A: .	B: 108.3	C: 90.5	D: -0.1

CCCc1c(C(=O)Nc2ncn[nH]2)cnn1-c1ccccc1
  A: 96.0	B: 93.8	C: 93.1	D: -4.9

COc1ccccc1-c1nnc(C2CCN(C(=O)c3ccc(F)cc3F)CC2)o1
  A: 101.0	B: .	C: .	D: -17.5

CCN(c1ccccc1)S(=O)(=O)c1ccc2c(c1)C(C)(C)C(=O)N2C
  A: 103.5	B: 87.8	C: 80.0	D: -14.6

14 consecutive entries already listed:
Short forms: A = GIV Gai3 FP; B = Sa growth inh; C = Sa growth inh second temp; D = HCMV UL50-53 inh
Cc1ccc(N2C(=O)CC2(C(=O)NC2CCCCC2)c2ccccc2F)cc1 (stereo unspecified)
  A: 96.7	B: 84.0	C: 88.6	D: .

Cc1cc(CNCC2CCCCC2)c(C)n1-c1nccs1
  A: .	B: 107.7	C: 87.5	D: -0.5

CCCC(=O)c1cc2cc(Cl)ccc2oc1=O
  A: 103.9	B: 87.2	C: 86.4	D: .

CCCc1nc2nc(C)c(NS(=O)(=O)c3ccc(Br)cc3)c(=O)n2[nH]1
  A: 97.2	B: .	C: .	D: -17.3

COc1ccc(S(=O)(=O)NCC2CCCO2)cc1C(=O)O (stereo unspecified)
  A: 103.2	B: 89.1	C: 83.5	D: -15.0

CN1CCC(NC(=O)c2cccs2)CC1
  A: 101.9	B: 109.5	C: 91.8	D: -7.4

C=CCn1nnnc1NCc1ccccc1
  A: 103.2	B: 94.3	C: 77.8	D: 2.1

COc1cccc(NS(=O)(=O)c2cc3c4c(c2)C(C)C(=O)N4CCC3)c1 (stereo unspecified)
  A: 94.8	B: 110.9	C: 86.0	D: .

ONC=Nc1nonc1-c1cccnc1
  A: 99.1	B: 101.4	C: 92.3	D: .

CNC(=O)COc1ccc(NC(=O)CCn2nc(-c3ccc(C)cc3)c3ccccc3c2=O)cc1
  A: 105.8	B: 128.3	C: 86.8	D: -38.0

CCC1CCCCN1C(=O)COC(=O)c1ccc(NC(C)=O)cc1 (stereo unspecified)
  A: .	B: 108.3	C: 90.5	D: -0.1

CCCc1c(C(=O)Nc2ncn[nH]2)cnn1-c1ccccc1
  A: 96.0	B: 93.8	C: 93.1	D: -4.9

COc1ccccc1-c1nnc(C2CCN(C(=O)c3ccc(F)cc3F)CC2)o1
  A: 101.0	B: .	C: .	D: -17.5

CCN(c1ccccc1)S(=O)(=O)c1ccc2c(c1)C(C)(C)C(=O)N2C
  A: 103.5	B: 87.8	C: 80.0	D: -14.6
